CBX7 AlphaScr = CBX7 inhibition, primary AlphaScreen; O95931; AlphaScreen His6-CBX7 / biotin-H3K27me3 peptide binding; active compounds read low; normalised signal (fraction of DMSO) (test concentration not listed); 66,000 tested, 1.1% active; in the data active = normalised signal below about 0.5;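 also: 100 nL library stock added to about 20 µL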
Target sequence (O95931 whole entry, looked up): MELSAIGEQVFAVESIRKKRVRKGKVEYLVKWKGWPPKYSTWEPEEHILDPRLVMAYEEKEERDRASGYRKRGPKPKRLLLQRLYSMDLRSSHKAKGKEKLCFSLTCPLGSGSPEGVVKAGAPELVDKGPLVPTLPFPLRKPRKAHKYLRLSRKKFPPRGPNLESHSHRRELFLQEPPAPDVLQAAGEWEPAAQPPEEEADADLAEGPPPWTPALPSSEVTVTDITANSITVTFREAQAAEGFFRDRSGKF
CBX7 AlphaScr z-score = also measured in CBX7 AlphaScr; calls as there; z-score; measured here: z-score of CBX7 signal; some inactives read as strong as hits; reference of the scale not given here;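 same signal on another scale; lower means less binding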
Starred values were filed as active, the others as inactive. Only part of the results is shown. The share of hits here may be higher or lower than overall.

SMILES | CBX7 AlphaScr | CBX7 AlphaScr z-score
Cc1cccc(NC(=O)C(=O)NCCc2ccc(Cl)cc2)c1 | 1.2 | 1.9
COc1cccc(C(=O)NC(C)C(c2cccs2)N2CCN(c3ccc(F)cc3)CC2)c1OC (stereo not drawn) | 0.85 | -4.8
CCCc1ccc(-c2ccc(-c3noc(-c4cccnc4)n3)cc2)cc1 | 1.1 | 2.6
Cc1ccc(NC(=O)CN2C(=O)COc3ccc(S(=O)(=O)N4CCC(C)CC4)cc32)cc1 | 1.1 | 2
CC(C)c1ccc(-c2csc(NC(=O)c3cc(Cl)cc(Cl)c3)n2)cc1 | 1 | 0.52
CCOc1ccc(-n2nc(C(=O)Nc3cc(C)c(Cl)cc3OC)c3ccccc3c2=O)cc1 | 1 | 0.64
O=C(CSc1nnc(Cc2cc(=O)[nH]c(=O)[nH]2)n1-c1ccc(F)cc1)Nc1ccc(Cl)cc1 | 1 | 0.026
CCCCCNC(=O)c1ccc(Cl)c(NC2=NC3CS(=O)(=O)CC3S2)c1 (stereo not drawn) | 1.1 | 2
CC1CCCN(C(=O)C2CCN(S(=O)(=O)c3ccc4c(c3)CCC(=O)N4)CC2)C1 (stereo not drawn) | 0.91 | -2.2
Cc1ccc(CNC(=O)c2oc3ccc(S(=O)(=O)N4CCC(C)CC4)cc3c2C)cc1 | 0.98 | -0.43
Cc1ccc(NC(=O)c2cnn(-c3ccccc3)c2C2CCN(C(=O)OC(C)(C)C)CC2)cc1 | 0.99 | -0.1
COCCCNC(=O)CN1C(=O)CSc2ncccc21 | 1 | 1.9
COc1ccc(CNC(=O)c2c(-c3ccccc3Cl)noc2C)cc1 | 1 | 0.98
Cc1onc(-c2ccccc2Cl)c1C(=O)NC(C)c1ccccc1 (stereo not drawn) | 0.96 | -0.81
Cc1ccccc1-c1nc(CS(=O)(=O)CC(=O)NC2CC2)c(C)o1 | 0.98 | -0.43
Cc1ccc(C)c(NCC(O)Cn2c3ccccc3c3ccccc32)c1 (stereo not drawn) | 0.68 | -1.4
CCN(CC)c1ccc(Nc2nc(-c3c(C)nc4ncccn34)cs2)cc1 | 0.33* | -19*
Cc1c(C(=O)N(C)Cc2ccccc2)oc2ccc(S(=O)(=O)N3CCOCC3)cc12 | 1.1 | 1.2
CCc1ccc(CNC(=O)C2CC(=O)N(Cc3ccc(OC)cc3)C2)cc1 (stereo not drawn) | 1 | 0.18
Cc1ccc(NC(=O)CSc2nc(-c3ccc4c(c3)OCO4)cn2-c2ccccc2)cc1C | 0.68 | -3.2

Look-ups from above:
In CBX7 AlphaScr, `Cc1ccc(NC(=O)CN2C(=O)COc3ccc(S(=O)(=O)N4CCC(C)CC4)cc32)cc1` reads 1.1
In CBX7 AlphaScr, `Cc1ccc(CNC(=O)c2oc3ccc(S(=O)(=O)N4CCC(C)CC4)cc3c2C)cc1` reads 0.98
In CBX7 AlphaScr z-score, `Cc1ccccc1-c1nc(CS(=O)(=O)CC(=O)NC2CC2)c(C)o1` reads -0.43

Returning to the listing, starting six compounds before the break.
SMILES | CBX7 AlphaScr | CBX7 AlphaScr z-score
Cc1ccccc1-c1nc(CS(=O)(=O)CC(=O)NC2CC2)c(C)o1 | 0.98 | -0.43
Cc1ccc(C)c(NCC(O)Cn2c3ccccc3c3ccccc32)c1 (stereo not drawn) | 0.68 | -1.4
CCN(CC)c1ccc(Nc2nc(-c3c(C)nc4ncccn34)cs2)cc1 | 0.33* | -19*
Cc1c(C(=O)N(C)Cc2ccccc2)oc2ccc(S(=O)(=O)N3CCOCC3)cc12 | 1.1 | 1.2
CCc1ccc(CNC(=O)C2CC(=O)N(Cc3ccc(OC)cc3)C2)cc1 (stereo not drawn) | 1 | 0.18
Cc1ccc(NC(=O)CSc2nc(-c3ccc4c(c3)OCO4)cn2-c2ccccc2)cc1C | 0.68 | -3.2
COc1ccccc1-c1nc(-c2ccc(Cl)cc2)no1 | 1.1 | 1.3
COCCCNC(=O)c1c[nH]c2ccc(S(=O)(=O)Nc3ccc(F)cc3F)cc2c1=O | 0.84 | -2
Cc1ccc(C)c(CSc2nc3ccncc3n2CC(=O)N(C)C2CCCCC2)c1 | 1.1 | 2.5
CCCCCCn1c(=N)n(CC(O)COc2ccc(OC)cc2)c2ccccc21 (stereo not drawn) | 0.9 | -0.42
O=C(Nc1c(C(=O)c2ccccc2)oc2ccccc12)c1ccccc1F | 1.4 | 1.3
Cc1ccc(C(=O)Nc2ccc(-c3nc4ncccc4o3)cc2)c(Cl)c1 | 1.1 | 1.5
CCOC(=O)c1cccc(NS(=O)(=O)c2ccc3c(c2)CCN3C(=O)CC)c1 | 1.2 | 1.5
CCOC(=O)c1cnc2c(C)cc(Cl)cc2c1Nc1ccccc1 | 1.1 | 1.4
CCOC(=O)c1c(NC(=O)c2ccc(S(=O)(=O)N(CC)CC)cc2)sc2c1CCN(CC)C2 | 1.1 | 3.3
Cc1cc(=O)n2nc(N3CCCC(C(=O)NC4CCCc5ccccc54)C3)sc2n1 (stereo not drawn) | 1.1 | 0.51
CC(NS(=O)(=O)c1ccc(F)cc1)C(c1cccs1)N1CCN(c2ccc(F)cc2)CC1 (stereo not drawn) | 0.83 | -4.2
COc1cc2c(cc1OC)C1C(C(=O)NCCN(C)Cc3ccccc3)c3ccccc3C(=O)N1CC2 (stereo not drawn) | 1.1 | 1.6
Cc1ccc(-c2nnc(Nc3ccc(O)cc3)c3ccccc23)cc1S(=O)(=O)N1CCCCC1 | 0.93 | -0.17
CC1CC(C)CN(C(C(=O)NC2CCCCC2)c2ccc(Cl)cc2)C1 (stereo not drawn) | 0.88 | -2.9
NC(=O)C1CCN(CC(=O)Nc2c3c(nc4ccccc24)CCC3)CC1 | 1.3 | 0.7
Cc1[nH]c2ccccc2c1/C=C/c1nc2ccccc2c(=O)n1CCCO | 1.2 | 0.6
Oc1ccccc1-c1cc(-c2ccccc2Cl)[nH]n1 | 0.6 | -1.8
CC(NC(=O)C1CCCN(c2nnc(-n3cccc3)s2)C1)c1ccccc1 (stereo not drawn) | 1.1 | 2
COc1cc2c(c(OC)c1)C(c1ccc3c(c1)OCO3)CC(=O)N2 (stereo not drawn) | 1.1 | 1.3
CCOC(=O)N1CC=C(c2c(C)[nH]c3ccccc23)CC1 | 0.92 | -3.1
O=C(c1ccc2c(c1)N(Cc1ccc(Cl)cc1)C(=O)CS2)N1CCCC1 | 0.95 | -1.1
CC(C)CCNc1ccc2nnc(-c3ccccc3)n2n1 | 1 | 0.19
Cc1cccc(C)c1Nc1c(-c2ccsc2)nc2cccc(C)n12 | 0.96 | -0.06
O=C(Nc1ccc(Cl)c(-c2nc3ccccc3o2)c1)c1ccccc1 | 1.1 | 1
COc1cccc(OCC(=O)N(Cc2nc(-c3ccc(C)cc3)no2)C(C)C)c1 | 0.72 | -2.8
CCN1C(=O)c2ccccc2S(=O)(=O)c2ccc(C(=O)NCCOC)cc21 | 1.1 | 1.5
Cc1cccc(NC(=O)c2oc3ccc(S(=O)(=O)N4CCCC4)cc3c2C)c1C | 0.95 | -1.1
COc1ccc(Cl)cc1C(=O)Nc1cccc(-c2nc3ccccc3o2)c1 | 1.1 | 1.8
Cc1ccc(NC(=O)C2CCN(c3nn4c(=O)cc(C)nc4s3)CC2)cc1 | 1.3 | 2.8
CCOc1ccc(CNC(=O)CCc2cn(C)c3ccccc23)cc1OC | 1 | 1.9
O=C(CSc1nc(Nc2ccc(F)cc2)c2ccccc2n1)NCC1CCCO1 (stereo not drawn) | 1 | 0.026
CCC1CCCCN1C(=O)CSc1nnc(-c2ccc(OC)cc2)o1 (stereo not drawn) | 1.1 | 2.1
COc1ccc(OC)c2[nH]c(=O)c(CCNC(=O)c3ccc(Cl)cc3Cl)cc12 | 1 | 0.76
COCc1cc(CN2CCC(C)CC2)c(O)c2ncccc12 | 0.0039* | -27*
Cc1ccc(CNC(=O)Cn2nc(-c3ccc(C)cc3)ccc2=O)cc1 | 0.99 | -0.34
Cc1c(Cl)cccc1NC(=O)C1(S(=O)(=O)c2ccc(Cl)cc2)CC1 | 1.1 | 3.4
CCC1Oc2ccc(C)cc2N(CC(=O)NCC2COc3ccccc3O2)C1=O (stereo not drawn) | 1 | 0.11
Cc1cccc(OCC(=O)Nc2ccc(-c3nc4cc(C)cc(C)c4o3)cc2)c1 | 1 | 1.1
COc1ccc(OC)c(CN2CCN(Cc3cccc(F)c3)CC2)c1 | 0.96 | -0.28
CC(C)c1cc(C(=O)NCc2ccc(Cl)cc2)no1 | 1.2 | 3.2
Cc1nc2cc(-c3ccc(Cl)cc3)nn2c(C)c1CCC(=O)N1CCCC1 | 1 | 0.28
Cc1ccc(-c2nn(CCC(=O)Nc3cccnc3)c(=O)c3ccccc23)cc1 | 1 | -0.14
Cc1ccc(-c2nc(C(=O)NC3CCCCC3)c(C)o2)cc1 | 1 | 0.66
Cc1cc(N2CCN(c3ccc(F)cc3)CC2)n2nc(C)c(-c3ccc(Cl)cc3)c2n1 | 1.1 | 2.5
COC(=O)Cc1nc(Nc2ccc(OC)cc2OC)c2c(C)c(C)sc2n1 | 0.99 | -0.18
Cc1ccccc1N(C)S(=O)(=O)c1ccc2[nH]cc(C(=O)NC3CCCC3)c(=O)c2c1 | 0.97 | -0.28
CC(C)Cn1c(C2CC(=O)N(c3ccccc3)C2)nc2ccccc21 (stereo not drawn) | 0.93 | -0.81
Clc1ccc(Nc2nc3nonc3nc2Nc2ccc(Br)cc2)cc1Cl | 0.89 | -4
Cc1cccc(CSc2nc3ccncc3n2CC(=O)Nc2ccc(N(C)C)cc2)c1 | 0.85 | -2.2
COc1ccccc1NC(=O)c1cc2c(C)nn(-c3ccccc3)c2s1 | 1 | 0.17
CCN(CCNC(=O)c1ccc2c(c1)N(CC)C(=O)c1ccccc1S2=O)c1ccccc1 (stereo not drawn) | 0.91 | -2.2
O=C(C1CCN(c2nc3ccccc3n2Cc2ccc(F)cc2)CC1)N1CCN(c2ccccc2)CC1 | 0.81 | -2.2
COc1ccccc1Nc1nc(-c2ccccc2)nc2ccccc12 | 1.4 | 17
CCn1c(C(=O)N2CCC(C(=O)NCCC(C)C)CC2)cc2sccc21 | 0.98 | -0.097
Cc1csc(NC(=O)CN(C)S(=O)(=O)c2cccc3cccnc23)n1 | 0.83 | -2.1
COc1cccc(C(=O)NCCc2cc3cc(C)c(C)cc3[nH]c2=O)c1OC | 1 | 0.78
COc1ccccc1C(=O)Nc1cccc(-c2nc3ncccc3o2)c1 | 1 | 0.37
COc1ccc2nc(SCC(=O)Nc3ccc(C)c(Cl)c3)[nH]c2c1 | 1.2 | 2.1
CCn1cc(C(=O)Nc2cc(C)ccc2OC)c2cc(OC)c(OC)cc2c1=O | 0.94 | -0.9
Cc1ccccc1CN1C(=O)CSc2ccc(C(=O)N3CCCC3)cc21 | 0.98 | -0.16

Next section.
SMILES | CBX7 AlphaScr | CBX7 AlphaScr z-score
COc1ccccc1-n1c(CCC(=O)O)ccc1-c1cccs1 | 0.89 | -1.9
O=C(Nc1cnn(Cc2ccc(F)cc2)c1)c1cc(-c2cccs2)on1 | 1 | 0.47
COc1ccc(NC(=O)CC2C(=O)N(c3ccccc3)C(=O)N2C(C)C)cc1 (stereo not drawn) | 1 | 1.7
COc1cccc(C(=O)Nc2ccc3oc(-c4cccc5c(Br)cccc45)nc3c2)c1 | 1.2 | 6.9
COc1ccc(CNc2ccc(NC(C)=O)cc2)cc1 | 0.99 | -0.1
CCCCn1c(=N)n(CC(O)COc2cccc(C)c2)c2ccccc21 (stereo not drawn) | 0.65 | -5
CCCc1cc2c(=O)c(-c3ccc4c(c3)OCO4)c(CC)oc2cc1O | 1 | 0.3
COc1ccc(Cn2c(CCC(=O)Nc3ccc(F)cc3)nc3cccnc32)cc1 | 1.1 | 3.1
Cc1ccc(CNC(=O)CN2C(=O)COc3ccc(C(C)(C)C)cc32)cc1 | 1.1 | 0.84
Cc1ccc(NC(=O)c2sc3ncn(CC(=O)N4CCCCC4C)c(=O)c3c2C)cc1F (stereo not drawn) | 1 | 0.57
Cc1cccc(NC(=O)C(=O)NCCCN2CCOCC2)c1 | 0.96 | -0.44
O=C(Nc1c2c(nn1-c1ccc(Cl)cc1)CSC2)c1cccc(F)c1 | 0.95 | -1.2
Cc1c(C(=O)NCc2cccnc2)oc2ccc(S(=O)(=O)N3CCC4(CC3)OCCO4)cc12 | 1.1 | 0.62
COc1ccc2c(c1)c(=O)c(S(=O)(=O)c1ccc(C)cc1)cn2CC(=O)Nc1ccccc1 | 0.94 | -2.1
COc1cc(OC)cc(-c2cc3nc(C)c(CCC(=O)NC4CCCC4)c(C)n3n2)c1 | 0.97 | -0.57
COc1ccc(C2(C(=O)NCC3(c4ccccc4)CCCC3)CCCC2)cc1OC | 0.94 | -0.77
O=C(NCc1nnc(SCC(=O)N2CCc3ccccc32)o1)c1cccs1 | 1 | 0.81
CCCNC(=O)Cn1cnc2sc(C(=O)NCCCN3CCOCC3)c(C)c2c1=O | 1.1 | 2.6
CCOC(=O)c1nnn(-c2nonc2N)c1CN1CCN(c2ccccc2)CC1 | 0.98 | -0.89
Cc1ccc(CN2C(=O)CCC2C(=O)NCCCN2CC(C)CC(C)C2)cc1 (stereo not drawn) | 1 | 0.75
O=C1CN(C(=O)CCC2CCCC2)C(c2ccc(F)cc2)c2cc(F)ccc2N1 (stereo not drawn) | 0.67 | -6
Cc1nnc2ccc(NCCC(C)C)nn12 | 0.86 | -1.8
Cc1ccc(CNC(=O)CSc2nc3nc(C)c(Cc4ccccc4Cl)c(C)n3n2)cc1 | 1 | 0.39
Cc1ccc(NC(=O)CSc2nccn2-c2cccc(Cl)c2)c(C)c1 | 1 | 0.7
COc1ccc(OC)c(CN2C(=O)c3ccccc3C2C(=O)NCCCN2CC(C)CC(C)C2)c1 (stereo not drawn) | 1 | -0.0071
O=C(NCc1cccs1)C1CCN(C(=O)c2cc3sccc3n2Cc2ccc(Cl)cc2)CC1 | 0.99 | -0.29
CCCCNC(=O)C1CCN(c2nc3cc(Cl)ccc3s2)CC1 | 1 | 1.7
CCCNC(=O)Cn1cnc2sc(C(=O)NCCc3ccc(OC)c(OC)c3)c(C)c2c1=O | 1 | 0.51
COc1ccc(NC(=O)c2csc3c2CCCCC3)c(OC)c1 | 1 | 1.4
COc1ccc(Oc2nc(-c3ccccc3)c3cc(Cl)ccc3n2)cc1 | 1.1 | 0.91

Compound activity deposited in PubChem BioAssay by several laboratories.
